NPYLR7 agonist = activates Aedes aegypti NPYLR7 receptor. AID 1259423. activation, % at 10 µM. HEK293T NPYLR7/Galpha15, GCaMP6s calcium fluorescence. 270,000 compounds, 0.15% hits; in the data active means activation above about 40%;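 further: 0% = vehicle and 100% = reference agonist at the receptor; some compounds past the cut are filed as inactive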
NPYLR7 agonist max-min = further read-out of NPYLR7 agonist, marked with its call; activation, %; measured here: Max-Min RFU normalised activation; some inactives read as strong as hits;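 span of the calcium signal over five minutes; 0% = vehicle and 100% = native peptide agonist; compound fluorescence can raise it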
An asterisk follows results filed as active; & = joins results of further samples.

Start of the listing, in advance:
What do the screens show for `COc1ccc(/C=C/CN2CCCC(CNS(=O)(=O)c3ccc(OC)cc3)C2)cc1` (stereo not drawn)?
NPYLR7 agonist: 2.4; NPYLR7 agonist max-min: 3.8

What do the screens show for `CC1(C(=O)Nc2ccc3c(c2)OCO3)CCN1Cc1ccccc1OC(F)F` (stereo not drawn)?
NPYLR7 agonist: 5.8; NPYLR7 agonist max-min: -1.7

What do the screens show for `Cc1ccc(C)c(SC(C)C(=O)Nc2sccc2C(N)=O)c1` (stereo not drawn)?
NPYLR7 agonist: -3.5; NPYLR7 agonist max-min: -4.8

The list itself, previewed entries included:
What do the screens show for `COc1ccc(/C=C/CN2CCCC(CNS(=O)(=O)c3ccc(OC)cc3)C2)cc1` (stereo not drawn)?
NPYLR7 agonist: 2.4; NPYLR7 agonist max-min: 3.8

What do the screens show for `CC1(C(=O)Nc2ccc3c(c2)OCO3)CCN1Cc1ccccc1OC(F)F` (stereo not drawn)?
NPYLR7 agonist: 5.8; NPYLR7 agonist max-min: -1.7

What do the screens show for `Cc1ccc(C)c(SC(C)C(=O)Nc2sccc2C(N)=O)c1` (stereo not drawn)?
NPYLR7 agonist: -3.5; NPYLR7 agonist max-min: -4.8

What do the screens show for `CSCc1c(C(=O)N2CCCc3ccccc32)oc2ccccc12`?
NPYLR7 agonist: -0.2; NPYLR7 agonist max-min: -1.5

What do the screens show for `COCCNCC(=O)N(CCc1c[nH]c2ccccc12)Cc1ccc(C(F)(F)F)cc1`?
NPYLR7 agonist: -2.2; NPYLR7 agonist max-min: -15.0

Results for C=c1[nH]/c(=C/c2ccccc2)c(=O)n1-c1ccc2[nH]c(=O)[nH]c2c1 ?
NPYLR7 agonist: -2.9; NPYLR7 agonist max-min: -4.1

Results for Fc1ccc(-c2nc(CSc3nnnn3C3CC3)cs2)cc1 ?
NPYLR7 agonist: 0.8; NPYLR7 agonist max-min: 17.7

Results for CC/C=C(/C)C(=O)N1CSCC1C(=O)N1CCN(C(C)=O)CC1 (stereo not drawn) ?
NPYLR7 agonist: 10.0; NPYLR7 agonist max-min: 11.5

What do the screens show for `COc1ccc(-c2cn3c(C)c(C(=O)N4c5ccccc5CC4C)sc3n2)cc1` (stereo not drawn)?
NPYLR7 agonist: -0.7; NPYLR7 agonist max-min: -1.2

How did Cc1cc2oc3c(c(=O)c2cc1C)C(c1ccccc1)N(c1nccs1)C3=O (stereo not drawn) do in these assays?
NPYLR7 agonist: 6.6; NPYLR7 agonist max-min: 3.5

How did COC(=O)c1c(NC(=O)c2ccccc2Cl)sc2c1CCC2 do in these assays?
NPYLR7 agonist: -5.9; NPYLR7 agonist max-min: -12.9

What do the screens show for `CC1CCCCN1C(C)CNC(=O)N(C)C1CCS(=O)(=O)C1` (stereo not drawn)?
NPYLR7 agonist: -0.7; NPYLR7 agonist max-min: 13.3

Results for c1ccc(-c2noc(CC3CCCCC3)n2)nc1 ?
NPYLR7 agonist: 9.7; NPYLR7 agonist max-min: 8.9

How did CCSc1ncc(-c2c(-c3ccccc3)ncn2CC2CCN(C)C2)cn1 (stereo not drawn) do in these assays?
NPYLR7 agonist: -1.7; NPYLR7 agonist max-min: -1.5

Results for O=C(Cc1ccccc1)NNC(=O)c1cccs1 ?
NPYLR7 agonist: -2.9; NPYLR7 agonist max-min: -6.5

How did COc1ccc(CC(=O)Nc2nnc(C(C)(C)C)s2)cc1 do in these assays?
NPYLR7 agonist: -5.7; NPYLR7 agonist max-min: -12.1

How did COc1ccc2c(c1OC)C(=O)N(c1nc3ccc(C)cc3s1)C2=O do in these assays?
NPYLR7 agonist: -9.5; NPYLR7 agonist max-min: -10.0

What do the screens show for `O=c1[nH]c2ccc(S(=O)(=O)N3CCOCC3)cc2[nH]1`?
NPYLR7 agonist: 0.0; NPYLR7 agonist max-min: 0.8

How did COc1ccc(N2CCN(C(=O)C3CCCCC3C(=O)N3CCOCC3)CC2)cc1 (stereo not drawn) do in these assays?
NPYLR7 agonist: -4.1; NPYLR7 agonist max-min: -9.8

How did Cn1cc(C#N)cc1C(=O)Nc1nc2ccccc2nc1N1CCCC1 do in these assays?
NPYLR7 agonist: 5.1; NPYLR7 agonist max-min: 4.5

What do the screens show for `Cc1cnc(NCCCn2cccn2)nc1-c1cnn(C)c1`?
NPYLR7 agonist: -6.8; NPYLR7 agonist max-min: -7.3

What do the screens show for `CN(C)c1ccc(C=NNC(=O)c2n[nH]c3c2CCC3)cc1`?
NPYLR7 agonist: 8.4; NPYLR7 agonist max-min: 14.0

Results for O=C1OCCC1Sc1nnc(-c2cccs2)n1C1CC1 (stereo not drawn) ?
NPYLR7 agonist: -3.9; NPYLR7 agonist max-min: -4.5

What do the screens show for `CC1NCCn2c(-c3nn[nH]n3)ccc21` (stereo not drawn)?
NPYLR7 agonist: -0.7; NPYLR7 agonist max-min: -2.6

What do the screens show for `COc1ccc(N2CCN(C(=O)c3cc(=O)c(OCc4ccccc4)c[nH]3)CC2)cc1`?
NPYLR7 agonist: 11.0; NPYLR7 agonist max-min: 6.7

What do the screens show for `O=C(Cn1nc(C2CC2)c2cnn(-c3cccc(Cl)c3)c2c1=O)N1CCc2ccccc21`?
NPYLR7 agonist: -2.4; NPYLR7 agonist max-min: -3.9

What do the screens show for `Cc1nc2sc3c(=O)[nH]nnc3c2c(C)c1Cl`?
NPYLR7 agonist: 8.0; NPYLR7 agonist max-min: 4.7

How did CCC(=O)N1CCC(CN2C(=O)CSC2c2cccc(C(F)(F)F)c2)CC1 (stereo not drawn) do in these assays?
NPYLR7 agonist: 8.4; NPYLR7 agonist max-min: 16.5

How did COc1ccc(NC2CCCN(C(=O)c3cccc(-n4nc(C)cc4C)c3)C2)cc1OC (stereo not drawn) do in these assays?
NPYLR7 agonist: 20.7; NPYLR7 agonist max-min: 21.8

Results for O=S(=O)(c1cccc(C(F)(F)F)c1)N1CCN(c2nc3ccccc3nc2-c2ccccc2)CC1 ?
NPYLR7 agonist: 14.2; NPYLR7 agonist max-min: 7.2

What do the screens show for `CCCOC(=O)C1=C(C)N(C)C(=O)NC1c1ccccc1[N+](=O)[O-]` (stereo not drawn)?
NPYLR7 agonist: -2.5; NPYLR7 agonist max-min: -6.2

How did CN1CCCC2(CCN(Cc3cccc(OCc4ccccc4)c3)C2)C1=O (stereo not drawn) do in these assays?
NPYLR7 agonist: -6.2; NPYLR7 agonist max-min: -9.6

How did Cn1c(=NC(=O)CCS(=O)(=O)c2ccc(F)cc2)sc2cc(F)ccc21 do in these assays?
NPYLR7 agonist: -0.7; NPYLR7 agonist max-min: -3.9

Results for O=C1CN(S(=O)(=O)c2ccc(C(=O)N(Cc3c(F)cccc3Cl)C3CC3)cc2)CCN1 ?
NPYLR7 agonist: -3.0; NPYLR7 agonist max-min: -3.7

What do the screens show for `CCOC(=O)c1sc(CC(=O)Nc2ccc(CC)cc2)nc1C`?
NPYLR7 agonist: 2.3; NPYLR7 agonist max-min: 0.2

What do the screens show for `COc1cccc(-c2nnc(SCc3ccc(C(=O)NCc4ccc(F)cc4)cc3)n2-c2ccccc2OC)c1`?
NPYLR7 agonist: 6.2; NPYLR7 agonist max-min: 15.4

How did CC(C)n1c(=O)[nH]c2cc(C(=O)NC(C3CC3)C3CC3)ccc2c1=O do in these assays?
NPYLR7 agonist: 1.8; NPYLR7 agonist max-min: 0.9

Results for COc1ccc(N2CCN(C3CCCN(C(=O)c4ccccc4Cl)C3)CC2)cc1 (stereo not drawn) ?
NPYLR7 agonist: 15.3; NPYLR7 agonist max-min: 6.7

Results for CNCC(O)C(O)C(O)C(O)CO (stereo not drawn) ?
NPYLR7 agonist: -2.9; NPYLR7 agonist max-min: -6.7

Results for Cc1ccnn1CC(=O)N1CCCCC1c1cccc(F)c1 (stereo not drawn) ?
NPYLR7 agonist: 10.9; NPYLR7 agonist max-min: 2.9

Four records picked at random from the list so far:
How did Cn1c(=NC(=O)CCS(=O)(=O)c2ccc(F)cc2)sc2cc(F)ccc21 do in these assays?
NPYLR7 agonist: -0.7; NPYLR7 agonist max-min: -3.9

What do the screens show for `COc1cccc(-c2nnc(SCc3ccc(C(=O)NCc4ccc(F)cc4)cc3)n2-c2ccccc2OC)c1`?
NPYLR7 agonist: 6.2; NPYLR7 agonist max-min: 15.4

How did CN1CCCC2(CCN(Cc3cccc(OCc4ccccc4)c3)C2)C1=O (stereo not drawn) do in these assays?
NPYLR7 agonist: -6.2; NPYLR7 agonist max-min: -9.6

How did CC(C)n1c(=O)[nH]c2cc(C(=O)NC(C3CC3)C3CC3)ccc2c1=O do in these assays?
NPYLR7 agonist: 1.8; NPYLR7 agonist max-min: 0.9

Following part.
How did C=CCn1cnc2c(nnn2-c2ccc(Cl)cc2)c1=O do in these assays?
NPYLR7 agonist: -4.6; NPYLR7 agonist max-min: -10.4

How did COc1ccc(CN(C(=O)c2ccc(Cl)cc2)C(C)C)cc1OCc1nc(CO)cs1 do in these assays?
NPYLR7 agonist: -5.5; NPYLR7 agonist max-min: -3.6

What do the screens show for `C[C@@H](NC(=O)c1ccc(SCC(=O)c2ccc(Cl)cc2)nc1)C(C)(C)C`?
NPYLR7 agonist: -1.4; NPYLR7 agonist max-min: -5.8

Results for COc1cccc(CN(CC2CC(c3ccc(Cl)c(Cl)c3)=NO2)C(=O)c2cccc(F)c2)c1 (stereo not drawn) ?
NPYLR7 agonist: 3.3; NPYLR7 agonist max-min: 6.5

What do the screens show for `O=C(Cc1ccccc1)n1nc(-c2cccnc2)nc1NCc1ccccc1`?
NPYLR7 agonist: 5.7; NPYLR7 agonist max-min: 4.7

Results for N#Cc1ccc(OCC(O)CN2CCCC3CCCCC32)cc1 (stereo not drawn) ?
NPYLR7 agonist: -18.2; NPYLR7 agonist max-min: -23.9

How did Cc1cccc(NC(=O)C(C)Sc2nnc(-c3cccs3)o2)c1 (stereo not drawn) do in these assays?
NPYLR7 agonist: 7.1; NPYLR7 agonist max-min: 1.6

How did O=C(Nc1cccc(-c2cccc(Cl)c2)c1)C1CCN(C(=O)C2CCCO2)CC1 (stereo not drawn) do in these assays?
NPYLR7 agonist: -4.4&8.8; NPYLR7 agonist max-min: -6.7&5.4

Results for Cc1ccc(C2CC(c3ccc(C)cc3C)=NN2C(=O)CN(C)C2CCCCC2)cc1 (stereo not drawn) ?
NPYLR7 agonist: -0.9; NPYLR7 agonist max-min: 7.7

What do the screens show for `Cc1cccc(COC(CN2CCN(C(=O)c3cc(C)nc(Cl)c3)CC2)c2ccc(Cl)cc2)c1` (stereo not drawn)?
NPYLR7 agonist: -1.4; NPYLR7 agonist max-min: 5.5

Results for O=C(c1cccc([N+](=O)[O-])c1)N1CCN(c2ccc(Nc3ccccc3)nn2)CC1 ?
NPYLR7 agonist: -3.0; NPYLR7 agonist max-min: -4.3

Results for COc1cc(NC(=O)C=Cc2ccco2)c(OC)cc1Cl ?
NPYLR7 agonist: -5.2; NPYLR7 agonist max-min: 13.4

Results for CCOC(=O)c1cc(C(C)(C)C)n(C2CCN(C(=O)c3cccc(NC(C)=O)c3)CC2)n1 ?
NPYLR7 agonist: -5.2; NPYLR7 agonist max-min: -10.3

Results for CC(C)Cc1noc(C(C)NC2CCN(c3ccc4c(c3)OCO4)CC2)n1 (stereo not drawn) ?
NPYLR7 agonist: 11.7; NPYLR7 agonist max-min: 12.0

What do the screens show for `Cc1c(C(C)NCc2ccc3c(c2)CCO3)cnn1-c1cccc(F)c1` (stereo not drawn)?
NPYLR7 agonist: 6.8; NPYLR7 agonist max-min: 9.5

What do the screens show for `CS(=O)(=O)N1CCCC(C(F)(F)F)C1` (stereo not drawn)?
NPYLR7 agonist: 4.6; NPYLR7 agonist max-min: 13.3

What do the screens show for `COc1ccc2nc(-c3ccc(C)c(NC(=O)Nc4ccc(C)cc4C)c3)cn2n1`?
NPYLR7 agonist: 6.2; NPYLR7 agonist max-min: 5.7

How did CSc1cccc(C(=O)Nc2c3c(nn2C)CCC3)c1 do in these assays?
NPYLR7 agonist: 8.3; NPYLR7 agonist max-min: 9.2

How did O=S(=O)(NCCc1csc2nc(-c3ccccc3F)nn12)c1cccs1 do in these assays?
NPYLR7 agonist: 8.0; NPYLR7 agonist max-min: 4.8

What do the screens show for `O=C(NCc1ccco1)C(C1CCCC1)N1CCN(C(=O)c2ccco2)CC1` (stereo not drawn)?
NPYLR7 agonist: -5.6; NPYLR7 agonist max-min: -0.8

Results for CCc1ccc(C(=O)N2CCC[C@@H]2C(=O)NC2CCC(NC(=O)c3ccccc3)CC2)cc1 (stereo partly drawn) ?
NPYLR7 agonist: 0.6; NPYLR7 agonist max-min: 5.4

What do the screens show for `CNCCC(Oc1ccccc1C)c1ccccc1` (stereo not drawn)?
NPYLR7 agonist: 0.6; NPYLR7 agonist max-min: 19.0

Results for CNC(=O)[C@@]1(OCc2cccc(Cl)c2)CC(OCc2ccccc2C#N)[C@@H]2OC(C)(C)O[C@@H]2C1 (stereo partly drawn) ?
NPYLR7 agonist: 16.4; NPYLR7 agonist max-min: 12.2

What do the screens show for `C(=NN1CCOCC1)c1nc(-c2ccccc2)n2ccccc12`?
NPYLR7 agonist: -3.7; NPYLR7 agonist max-min: -6.1

What do the screens show for `N#Cc1c(SCC(=O)c2ccc(Cl)cc2)nc2c(c1-c1ccncc1)CCCC2`?
NPYLR7 agonist: 15.3; NPYLR7 agonist max-min: 11.4

What do the screens show for `CC1CCCCN1C(=O)C(C1CCCC1)N1CCN(C(=O)c2ccccc2C(F)(F)F)CC1` (stereo not drawn)?
NPYLR7 agonist: 8.8; NPYLR7 agonist max-min: 32.2

What do the screens show for `Cc1cccc(NC(=O)COc2ccc(Br)cc2)n1`?
NPYLR7 agonist: 20.3; NPYLR7 agonist max-min: 9.0

How did COc1cccc(N2CC(C(=O)N(Cc3ccsc3)C3CC3)CC2=O)c1 (stereo not drawn) do in these assays?
NPYLR7 agonist: 18.0; NPYLR7 agonist max-min: 17.3

Results for COc1cccc(-c2cc(-c3ccc(C(=O)N4CCC(C(F)(F)F)CC4)cc3)[nH]n2)c1 ?
NPYLR7 agonist: 2.8; NPYLR7 agonist max-min: 9.5

How did CCn1cc(C(=O)NCc2cccnc2N2CCc3ccccc3C2)cn1 do in these assays?
NPYLR7 agonist: 1.4; NPYLR7 agonist max-min: -1.4

How did COc1cccc(-c2nc3c(Nc4ccccc4)nccc3[nH]2)c1F do in these assays?
NPYLR7 agonist: -1.1; NPYLR7 agonist max-min: -6.9

These rows are one share of the data. The share of hits here may be higher or lower than overall.
